# Bioassay records as filed in PubChem.
# Six1-Eya2 inh: Six1/Eya2 interaction inhibition; Q15475+O00167; AlphaScreen GST-Six1/His-Eya2 binding, biochemical; stronger effect = lower value; control for the full effect not named in the record; activity change, % (no concentration beside the values); 360,000 tested, 0.56% active; AID 651725; in the data active = activity change below about -65%; inconclusive = about -30% to -65%; inactive = above about -30%; also: % is scaled to controls: 0 for no effect and ±100 for the full control effect; compound concentration not given in the record
#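 Homogeneous AlphaScreen proximity assay pairing GST-Six1 with His-tagged Eya2 (added as 5X mix: 250 nM and 500 nM) in 50 mM Tris pH 8.0, 300 mM NaCl, 1 mM TCEP. Glutathione donor and nickel acceptor beads; 1 h, 37 °C, dark.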
# Sfp PPTase inh: blocks B. subtilis Sfp PPTase activity | Q9F4F7 | Biochemical Sfp PPTase activity, qHTS | Potency, µM, for the others: max response, negative = inhibition, most hits filed as inhibitors | 310,000 tested, 3.5% active | AID 1490; active = well fitted inhibition curve with a large enough effect; inconclusive = small, poorly fitted or top-dose-only effect, or another doubt; inactive = no such curve, though single readings can be large or run the other way;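 also: the enzyme is Sfp with the accession as filed and its product quenches rhodamine fluorescence; potency is read from the fitted curve at half-maximal effect; 0% = enzyme reaction without inhibitor and -100% = no enzyme wells; top concentration of the series not given in the record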
#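 Sfp 15 nM + cpd, 15 min RT; start w/ rhodamine-CoA 5 uM, BHQ-2-YbbR 12.5 uM (final); 50 mM Hepes pH 7.6, 10 mM MgCl2, 0.01% NP-40, 0.01% BSA; read 525/598 nm at 0 and 30 min.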
# D2 agonist: human D2 receptor agonism in beta-arrestin assay; P14416; DiscoveRx PathHunter D2 beta-arrestin, luminescence, 90 min; 100% = 57 uM dopamine signal; activation, % (concentration not given with the values); 360,000 tested, 0.084% active; AID 624465; in the data active = activation above about 40%; inconclusive = about 15% to 40%; inactive = below about 15%; also: compound concentration not given in the record; the text of the record calls up to 30% inactive
# Target sequence (P14416 whole entry, looked up): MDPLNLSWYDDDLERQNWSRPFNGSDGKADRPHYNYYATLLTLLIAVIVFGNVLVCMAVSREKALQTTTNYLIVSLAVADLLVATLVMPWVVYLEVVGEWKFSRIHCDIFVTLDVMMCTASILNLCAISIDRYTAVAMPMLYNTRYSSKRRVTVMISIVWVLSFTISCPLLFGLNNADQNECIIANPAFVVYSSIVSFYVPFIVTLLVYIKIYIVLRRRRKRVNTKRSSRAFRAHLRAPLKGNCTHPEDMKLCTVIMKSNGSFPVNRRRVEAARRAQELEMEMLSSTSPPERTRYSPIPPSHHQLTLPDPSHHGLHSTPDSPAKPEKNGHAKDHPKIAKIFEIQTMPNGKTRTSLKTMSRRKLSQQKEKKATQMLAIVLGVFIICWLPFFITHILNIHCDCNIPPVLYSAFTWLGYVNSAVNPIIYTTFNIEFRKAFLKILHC
#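 Agonist mode: compounds alone added to overnight-plated D2 PathHunter cells for 90 min at 37 C, with 57 uM final dopamine (EC100) defining full response. Beta-arrestin recruitment detected by chemiluminescent reagent, read after 1 h at ambient temperature.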
# PINK1 modulator: changes PINK1 expression; Potency, µM (highest dose often 76.6 µM), for inactives: top-dose activation (PINK1 increase), most hits filed as activators; AID 624263; PINK1 immunofluorescence, high-content cytometry, 24 h; 410,000 tested, 0.2% active; active = well fitted activation curve with a large enough effect; inconclusive = small, poorly fitted or top-dose-only effect; inactive = flat fitted curve, though single readings scatter; cell line not stated here;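 also: potency is read from the fitted curve at half-maximal effect; % of control where 0% means no effect; nearly all actives have a fitted effect of over 65% in size; a mitochondrial uncoupler was the plate control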
#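 PINK1 protein, normally rapidly degraded, was detected by immunofluorescence after 24 hour compound treatment of a stable cell line. Titration data (5 concentrations) came from laser-scanning cytometry, with CCCP-treated wells as controls.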
# D2 potentiator: positive allosteric modulators of human D2 dopamine receptor; P14416; DiscoveRx D2 beta-arrestin cells, luminescence, 90 min; 100% = 57 uM dopamine signal; potentiation, % (test concentration not listed); 360,000 tested, 0.23% active; AID 624464; active = potentiation of 50% or more; inconclusive = 30% to 50%; inactive = 30% or less;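 also: compound concentration not given in the record; tested on top of an EC20 dose of dopamine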
#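 PathHunter D2 cells, attached overnight at 37 deg C, received compound in DMSO plus dopamine at EC20 (50 nM final) for 90 min at 37 deg C. Beta-arrestin recruitment was read as luminescence after 1 h with detection reagent at ambient temperature.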
# TRPV1 PAM: human TRPV1 potentiation; 320,000 tested, 0.02% active; Q8NER1; AID 540277; TRPV1-expressing cells, Fluo-8 calcium influx, capsaicin EC20 potentiation; host cell line not named in the record; control for the full effect not named in the record; potentiation, % at 8.33 µM; active means potentiation above 80%; inconclusive means 30% to 80%; inactive means below 30%; also: 0% is about no effect
#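 Fluo-8 calcium influx in TRPV1-expressing cells, kinetic read (ex 480/em 520 nm). Compound added and read 3 min for agonist activity, followed by capsaicin at EC20 final and 2 min further read for enhancement.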
# CtBP-E1A blk: inhibitors of CtBP/E1A interaction. AlphaScreen GST-E1A/His-CtBP binding, 1536-well; stronger effect = lower value; control for the full effect not named in the record. activity change, % (concentration not given with the values). 340,000 tested, 0.49% active; in the data active means activity change below about -65%; inconclusive means about -30% to -65%; inactive means above about -30%; also: % is scaled to controls: 0 for no effect and ±100 for the full control effect
#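 Steps: dispense buffer (Tris pH 8.0, NaCl 300 mM, TCEP 1 mM, BSA, Tween 20); add 5X protein mix (GST-E1A, His-CtBP, 125 nM each); pin 23 nL compound; 2 h at 37 °C, dark; add 5X beads (50 ug/mL); 1 h; read.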
# * marks the source's active call; other numbers are inactive results; ? = inconclusive; · = no result given; & = joins results of further samples; [ ] = remark or other dose. An unsorted share of the library (roughly 3.7% active in at least one column).
SMILES,Six1-Eya2 inh,Sfp PPTase inh,D2 agonist,PINK1 modulator,D2 potentiator,TRPV1 PAM,CtBP-E1A blk
COc1ccc(S(=O)(=O)NCCC(=O)N2CCCN(C)CC2)cc1,2,·,8.6,1.5%,-2,-11,4
O=c1oc(-c2ccccc2NS(=O)(=O)c2ccc3ccccc3c2)nc2ccccc12,2,9%,-2.9,6.5%,-11,10,-4
Cc1ccc(C)c(OCC(=O)NNC(=O)c2ccc(NC(=O)C3CC3)cc2)c1,0,6%,1.0,4.4%,-3,0,-5
CC1=NN(c2ccc(C)c(C)c2)C(=O)/C1=C/c1ccc2c(c1)n(C)c(=O)n2C,-10,7%,-2.5,2.8%,-29,0,3
Cc1ccc(-n2ncc3c2CCCC3NC(=O)CCc2cnn(C)c2)cc1C (centres undefined),0,21%,-2.5,0.6%,-10,-9,-6
COCCNC(=O)CN(C(=O)Cn1nnc2ccccc21)c1cccc(C)c1C,6,30%,?,3.2%,-2,4,4
Cc1onc(-c2ccccc2Cl)c1C(=O)OCC(=O)N1CCCc2ccccc21,-2,-3%,-0.3,-1.0%,0,-5,-1
COC(=O)Cc1ccc(NC(=O)c2ccc(NC(=O)c3ccco3)cc2)cc1,1,-13%,-2.2,4.6%,-4,-1,·
O=C(/C=C/c1cccc(C(F)(F)F)c1)N1CCN(c2ccccn2)CC1,-7,4%,-9.3,-1.2%,-16,-9,6
COc1ccc(C(=O)N2CCCC(C(=O)O)C2)c2ccccc12 (centres undefined),1,2%,-0.3,1.0%,3,-3,4
CCn1c(-c2ccccc2Cl)nn(CC(=O)Nc2ccccc2C)c1=S,5,3%,-4.1,-1.7%,-7,4,7
c1ccc(C(c2ccccc2)N2CCN(C(c3ccccn3)c3nnnn3C3CCCC3)CC2)cc1 (centres undefined),0,19%,-3.7,0.5%,-18,1,-4
Cc1onc(-c2ccccc2)c1C(=O)Nc1ncc([N+](=O)[O-])s1,4,5%,-9.2,13µM*,-11,3,-15
CCOC(=O)/C(C#N)=C/c1cn(CCC(=O)O)nc1-c1ccccc1,11,11%,-2.0,-0.2%,-8,-2,3
O=C(NC(=S)NNC(=O)c1cccs1)c1ccccc1,-5,-21%,3.8,1.9%,-12,1,2
CN1CCN(C(c2ccc(F)cc2)c2nnnn2Cc2cccs2)CC1 (centres undefined),0,-11%,-5.3,-1.7%,-18,-7,9
Cc1cc(C)nc(SCc2ccc(C(=O)N/N=C/C3CCCCC3)cc2)n1,5,-3%,-0.4,3.2%,-1,-7,2
COc1ccc(S(=O)(=O)N2CCC(NC(=O)C(Cc3cccc(OC)c3OC)NC(C)=O)CC2)cc1 (centres undefined),4,16%,2.8,-1.8%,1,8,3
O=C(Nc1cccc([N+](=O)[O-])c1)N1CCc2ccccc2C1,-5,17%,-6.6,-0.2%,-23,-1,-6
CC(C)N(O)C(=O)NC(C)(C)C,3,24%,-4.1,-2.3%,0,5,-6
CCOc1cc(/C=C2\NC(=S)N(c3c(C)n(C)n(-c4ccccc4)c3=O)C2=O)ccc1O,1,?,0.7,-2.1%,-18,-1,0
CC1CCN(CCNC(=O)C2CCCN(S(=O)(=O)c3cccc4nonc34)C2)CC1 (centres undefined),3,14%,4.6,-0.1%,-9,5,0
NC1=NC(=O)/C(=C/c2cc(Br)c(O)c(Br)c2)S1,-19,-15%,-15,-0.7%,-9,?,184
CC(=O)NC1=C(NC2CCS(=O)(=O)C2)C(=O)c2ccccc2C1=O (centres undefined),1,32µM*,8.4,-0.3%,?,0,-3
CCN(CC)CCCNc1nc(N)c([N+](=O)[O-])c(N2CCCCCC2)n1,0,3%,-3.5,1.0%,-22,-5,-4
Nc1ccc(NC2C[C@@H](C(=O)O)NC2=O)cc1 (some centres undefined),4,15%,-0.5,0.0%,-3,-2,-1
Cc1ccc(C(C(=O)NCC2CCCO2)N(C(=O)c2snc(C(N)=O)c2N)c2ccccc2)o1 (centres undefined),-4,10%,8.9,3.4%,9,15,4
CC(C)(C)c1cc(C2=CSC3=NCCN23)cc(C(C)(C)C)c1O,-4,-22%,7.3,17%,4,-1,-3
C=CCN(CC(=O)NCc1ccc(OC)cc1)C(=O)c1csnn1,6,11%,-1.7,-3.1%,-16,5,-9
COCCCN(CCCN)Cc1ccco1,-7,?,-2.0,-0.8%,-8,-19,-3
Cc1cc(C)c2sc(N(CCCN(C)C)C(=O)COc3ccc(Cl)cc3)nc2c1,-5,-38%,-0.2,-2.8%,-5,21,-17
O=C(CCS(=O)(=O)c1ccccc1)Nc1ccc(S(=O)(=O)Nc2ncccn2)cc1,-1,10%,-4.3,0.4%,0,1,0
O=S(=O)(O)c1cc(O)c2c(O)c(N=Nc3cc(Cl)ccc3O)c(S(=O)(=O)O)cc2c1,-75*,?,-11,0.2%,-13,1,-95*
Cc1ccc(NC(=O)CCc2c[nH]c3ccccc23)nc1,-11,13%,-1.3,1.6%,-7,-1,0
O=C1CCc2cc(S(=O)(=O)NCc3ccc(Cl)cc3)cc3c2N1CC3,7,·,-1.3,0.2%&0.8%,-7,5,-2
O=C(Oc1ccc2ccc(=O)oc2c1)c1ccc([N+](=O)[O-])cc1,-19,6%,-1.5,-1.5%,-2,26,4
O=C(NC(=O)c1ccccc1)Nc1ccccc1O,0,6%,-7.6,4.0%,-13,9,-24
COc1ccc(CCn2c(-c3cc([N+](=O)[O-])cc([N+](=O)[O-])c3)nc3nc4ccccc4nc32)cc1OC,7,15%,3.0,0.7%,8,-14,5
CC1CC(C)(C)Nc2ccc(N=O)cc21 (centres undefined),-11,22%,0.5,?,-45,1,·
O=C(Nn1cnc2ccccc2c1=O)c1ccccc1[N+](=O)[O-],-2,-4%,-1.6,0.4%,-3,29,-4
CCN1CCN(C(=O)c2cc3c(=O)oc4ccc(C)cc4c3s2)CC1,2,5%,-2.1,-3.6%,-10,-6,6
COc1ccccc1OCCSc1nc2ccc([N+](=O)[O-])cc2s1,-26,9%,1.9,2.2%,-3,16,-27
COc1ccc(S(=O)(=O)N(C)c2ccc(C(=O)N3CCOCC3)cc2)cc1,6,11%,-1.3,2.4%,5,?,3
COc1ccc(C(=O)N/C(=C\c2ccc(OC)c(OC)c2)C(=O)N2CCCCC2)cc1,0,13%,0.5,1.1%,-9,-7,13
Cn1c(SCc2ccccn2)nnc1-c1ccncc1,2,5%,-2.2,1.0%[38.3 µM],-7,0,-3

# Of the compounds above, 3 have a furan ring, fused or not.
SMILES,Six1-Eya2 inh,Sfp PPTase inh,D2 agonist,PINK1 modulator,D2 potentiator,TRPV1 PAM,CtBP-E1A blk
COC(=O)Cc1ccc(NC(=O)c2ccc(NC(=O)c3ccco3)cc2)cc1,1,-13%,-2.2,4.6%,-4,-1,·
Cc1ccc(C(C(=O)NCC2CCCO2)N(C(=O)c2snc(C(N)=O)c2N)c2ccccc2)o1 (centres undefined),-4,10%,8.9,3.4%,9,15,4
COCCCN(CCCN)Cc1ccco1,-7,?,-2.0,-0.8%,-8,-19,-3

# New compounds follow.
SMILES,Six1-Eya2 inh,Sfp PPTase inh,D2 agonist,PINK1 modulator,D2 potentiator,TRPV1 PAM,CtBP-E1A blk
CC1SCC(NC(=O)c2ccccc2Cl)CS1 (centres undefined),-10,18%,-5.1,0.0%,-2,-7,?
CCCCOc1ccc(-c2c(C(=O)Nc3ccccc3)c(C)[nH]c(=S)c2C#N)cc1,3,15%,-1.1,3.3%,-7,6,0
CSc1cccc(NC(=O)CN(C)S(=O)(=O)c2ccc(C)cc2)c1,-8,-4%,-3.9,0.0%,-31,-4,-6
CC(=O)Nc1ccc(CN2CCN(C3CCCC3)C(CCO)C2)cc1 (centres undefined),4,-3%,-7.0,-1.4%,-15,8,-12
N#Cc1ccccc1,12,·,-1.9,-0.4%,-5,0,-7
COc1ccccc1COC(=O)CN1C(=O)NC2(CCCCC2C)C1=O (centres undefined),6,·,3.9,1.0%,-4,-11,2
Cc1ccnc(NS(=O)(=O)c2ccc(NC(=O)C(C)(C)C)cc2)n1,5,2%,-0.7,-1.0%,-7,4,6
O=C(CCS(=O)(=O)c1ccccc1)N1CCCc2ccccc21,1,15%,7.3,0.5%,-3,-6,·
COc1ccc(Cl)c2sc(N3CCN(C(C)=O)CC3)nc12,0,1%,-0.2,-0.3%,-8,19,1
Oc1[nH]c2ccccc2c1/C=N/c1nccs1,?,6%,-3.4,-2.5%,-16,6,?
Clc1cc(Br)ccc1OCCn1ccnc1,-5,-17%,-0.4,-3.7%,-9,0,-5
CCN1C(=O)c2ccccc2Sc2ccc(C(=O)NCCC(C)C)cc21,0,-6%,-3.5,2.5%,-21,-17,-10
NC(Cc1ccc2nsnc2c1)C(=O)O (centres undefined),2,·,-0.7,1.5%[38.3 µM],-4,·,-9
CCOc1ccccc1NC(=S)N1C2CCC1CC(NC(=O)NC13CC4CC(CC(C4)C1)C3)C2 (centres undefined),-3,2%,-0.7,16%[38.3 µM],-3,7,1
CCc1ccc(C(O)c2ncc(-c3ccc(Cl)cc3)[nH]2)cc1 (centres undefined),-8,·,3.1,4.3%,-9,·,-9
Cc1cccc(NC(=O)Nc2cccc(C)n2)n1,-7,-8%,-3.4,-1.2%,-9,-10,-14
O=C(NC(=S)N1CCN(c2ccc(Cl)cc2[N+](=O)[O-])CC1)c1cccs1,-15,6%,-9.8,?,-23,-20,3
CCN(C(=O)c1cccc(S(=O)(=O)N(C)C)c1)C12CC3CC(CC(C3)C1)C2,-1,2%,5.3,-0.7%,-3,-10,-13
Cc1ccc(C(=O)C2=C(O)C(=O)N(Cc3ccco3)C2c2ccc(N(C)C)cc2)o1 (centres undefined),11,-10%,-1.7,-0.4%,-11,2,-11
CCOC1=C2[C@H](c3cccc(Cl)c3)N(S(=O)(=O)c3ccc(C)cc3)C[C@H]2n2c(=O)n(-c3ccccc3)c(=O)n2C1,8,·,5.9,3.6%,-4,·,-18
Cc1ncc2c(n1)NC(=O)NC2,4,·,-2.2,1.7%,-2,·,1
COc1ccc(C(=O)C2CCCN(C(=O)C3CCOCC3)C2)c(C)c1 (centres undefined),8,12%,-1.4,1.4%,-1,7,0
COc1ccccc1-n1cc([C@@H]2C[C@H]3CN(c4ccccc4)C(=O)[C@]34CCCN24)cn1,-9,10%,-2.0,-3.8%,-17,-2,1
